VDR inh: Inhibitors of the vitamin D receptor (VDR): qHTS; Vitamin D3 receptor (Homo sapiens), P11473; AID 504847, 2011; 0.93% of 400,000 active; Potency, µM, inactives show max response, negative = inhibition, usual class: inhibitors; VDR-SRC2-3 peptide fluorescence polarization, 2 h; active = well fitted inhibition curve with a large enough effect; inconclusive = small, poorly fitted or top-dose-only effect, or another doubt; inactive = no such curve, though single readings can be large or run the other way; also: series mostly up to about 120 µM
Target sequence (P11473 whole entry, looked up): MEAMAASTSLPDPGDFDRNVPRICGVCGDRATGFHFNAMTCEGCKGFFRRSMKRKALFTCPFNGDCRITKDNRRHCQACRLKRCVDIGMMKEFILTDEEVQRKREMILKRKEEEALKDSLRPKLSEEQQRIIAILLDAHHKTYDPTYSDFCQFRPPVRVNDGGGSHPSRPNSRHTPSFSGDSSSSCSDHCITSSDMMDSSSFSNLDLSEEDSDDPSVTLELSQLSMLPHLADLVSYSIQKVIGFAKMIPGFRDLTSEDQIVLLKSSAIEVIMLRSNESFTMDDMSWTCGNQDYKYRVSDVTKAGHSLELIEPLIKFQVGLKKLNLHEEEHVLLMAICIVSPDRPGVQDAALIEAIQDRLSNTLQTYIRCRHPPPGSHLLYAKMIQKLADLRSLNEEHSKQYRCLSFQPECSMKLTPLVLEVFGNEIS
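Two reagent solutions held at 4 deg C in the dark were dispensed, compounds pinned at 23 nl, and the mixture incubated 2 h at room temperature. Read-out: fluorescence polarization of VDR–SRC2-3 peptide binding.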
* hit, by the source's call; u = inconclusive; [ ] = dose if it differs, or a comment. % is scaled to controls: 0 for no effect and ±100 for the full control effect; potency is read from the fitted curve at half-maximal effect. A portion of the library; the hit share may differ from the screen's.

The first 2 compounds, ahead of the listing:
SMILES | VDR inh
COc1ccc(CN(C(=O)CSc2nnc(-c3ccccc3C)o2)c2ccc(F)cc2)cc1 | 11.9%
Cc1cc(=O)oc(C)c1C(=O)N[C@@H]1CCCCNC1=O | 11.3%

The whole of this part (from the top)
SMILES | VDR inh
COc1ccc(CN(C(=O)CSc2nnc(-c3ccccc3C)o2)c2ccc(F)cc2)cc1 | 11.9%
Cc1cc(=O)oc(C)c1C(=O)N[C@@H]1CCCCNC1=O | 11.3%
CC(=O)Nc1ccc(NC(=O)C2CCCN2C(=O)Nc2ccc(F)c([N+](=O)[O-])c2)cc1 (stereo unspecified) | 8.8%
Cc1ccccc1NC(=O)CC(=O)c1ccccc1 | -5.8%
C=CCn1c(SCC(=O)O)nnc1-c1cccc(Cl)c1 | -13.5%
Cc1cc(NC(=O)C(C)Oc2ccc(C(C)(C)C)cc2)no1 (stereo unspecified) | -1.7%
CCN(C(=O)COC(=O)/C=C/c1cccc([N+](=O)[O-])c1)c1c(N)n(Cc2ccccc2)c(=O)[nH]c1=O | -20.6%
O=C(NNC(=O)c1ccccc1O)c1ccco1 | 12.1%
N#Cc1ccccc1S(=O)(=O)N1CCN(C(=O)[C@H](Cc2ccccc2)NC(=O)c2ccco2)CC1 | -18.3%
O=C(Nc1cc(C(F)(F)F)ccc1-n1cncn1)c1ccc([N+](=O)[O-])o1 | 2.8%
Cc1nc2ccccc2c(=O)n1N | 0.9%
CN(C)c1ccc(NC(=O)CSc2n[nH]c(-c3ccncc3)n2)cc1 | 7.1%
CCOc1ccc(C)cc1S(=O)(=O)NC1CCCCCC1 | -4.6%
CCOc1ccccc1NC(=O)c1cc(C(=O)Nc2ccccc2OCC)cc(N2C(=O)CCC2=O)c1 | -18.3%
Cc1ccc2c(c1)Cc1c(nc(-c3ccc(Cl)cc3)nc1SCC(=O)N1CCCCC1)O2 | 11.2%
O=c1c2ccccc2nc(/C=C/c2ccc(Cl)cc2)n1CCO | -10.5%
CCOc1ccc(S(=O)(=O)Nc2ccc(C(=O)N(C)CC(=O)Nc3ccc(OC)cc3)cc2)cc1 | -7.9%
Cc1ccc(OCC(=O)O/N=C(\N)c2cccc([N+](=O)[O-])c2)cc1C | 2.3%
Cc1ccc(S(=O)(=O)N(C)c2ccc(OCC(=O)Nc3nc(-c4ccccc4)cs3)cc2)cc1 | 9.6%
COc1cccc(NC(=O)C2CCN(S(C)(=O)=O)CC2)c1 | 9.1%

Fetched one by one from the list above, 2 records:
SMILES | VDR inh
C=CCn1c(SCC(=O)O)nnc1-c1cccc(Cl)c1 | -13.5%
CC(=O)Nc1ccc(NC(=O)C2CCCN2C(=O)Nc2ccc(F)c([N+](=O)[O-])c2)cc1 (stereo unspecified) | 8.8%

(cont.)
SMILES | VDR inh
Cc1ccc(S(=O)(=O)N2CCN(C(=O)CN3C(=O)NC(C)(c4ccc(Cl)cc4)C3=O)CC2)c(C)c1 (stereo unspecified) | 2.4%
COc1ccccc1OCc1ccc(C(=O)NC2CCCCC2)o1 | 6.3%
Nc1ncc(N=Nc2cc(C(=O)O)ccc2Cl)s1 | u
CCNC(=S)NC1CC2CCCC(C1)N2CCc1ccccc1 (stereo unspecified) | -7.8%
CCCOc1ccc(S(=O)(=O)N2CCN(C)CC2)c2ccccc12 | -15.8%
Cc1cccc(CCNC(=O)c2ccc3c(c2)nc2n3CCCCC2)c1 | 8.8%
CCOc1ccc2oc(=O)cc(CN3CCN(Cc4ccccc4)CC3)c2c1 | 3.0%
CC(C)N1CCc2c(sc(NC(=S)NC(=O)c3ccccc3)c2C#N)C1 | -9.5%
Cn1c(COc2ccccc2)nnc1SCC(=O)Nc1ccc2c(c1)OCO2 | -0.1%
Cc1ccc(NC(=S)NC(C)(C)C)c([N+](=O)[O-])c1 | 9.8%
COc1ccc(/C=C2\SC(=O)N(CCNC(=O)Cc3coc4cc(C)ccc34)C2=O)cc1OC | 25.7%
CC(C)CN(C(=O)COC(=O)c1ccc([N+](=O)[O-])s1)c1c(N)n(Cc2ccccc2)c(=O)[nH]c1=O | -11.2%
Cc1cc(Nc2cccc(Cl)c2C)n2nc(Cc3ccccc3)nc2n1 | 8.4%
CCCc1nnc2n1N=C(c1ccc(C)cc1)CS2 | 7.6%
Cc1[nH]c(=O)[nH]c1C(=O)CCCCC(=O)O | 4.1%
CCn1c(CSc2nc3ccccc3s2)nnc1SCC(=O)OC(C)(C)C | -28.1%
CN(C)CCCNc1nc(-c2ccccc2)c2c(c1C#N)CC(C)(C)OC2 | -12.0%
CCN(CC(=O)Nc1ccc(NC(C)=O)cc1)C(=O)c1oc2c(ccc3ccccc32)c1C | 7.0%
O=C(O)CCN1C(=O)c2ccc(NC(=O)CSc3ccc(Cl)cc3)cc2C1=O | -13.8%
Cc1nc(C(=O)NCc2ccccc2)sc1C1(C)CC(c2cccc([N+](=O)[O-])c2)=NO1 (stereo unspecified) | -6.0%
O=C(Cc1ccccc1)NCCS(=O)c1ccc(Cl)cc1 (stereo unspecified) | 6.1%
O=C(/C=C/c1ccccc1)Nn1cnc2ccccc2c1=O | 21.9%
CC(=O)Nc1cccc(C(=O)N/N=C/c2ccc(F)cc2)c1 | -5.3%
Cc1csc2nc(COC(=O)CNC(=O)c3ccc(Cl)cc3)cc(=O)n12 | 0.1%
O=C(Nc1ccc(N2CCN(c3ncccc3C(F)(F)F)CC2)nc1)c1cccs1 | 8.9%
Nc1ccc(C2(c3ccc(N)cc3)OC(=O)c3ccccc32)cc1 | 0.2%
C=CCNC(=O)/C(C#N)=C/c1c(N2CCCCCC2)nc2ccccn2c1=O | 1.6%
CC(=O)c1ccc(NC(=O)CN2CCCCCC2)cc1 | -2.1%
COc1ccc(CNCCNC(=O)c2nonc2N)cc1OC | 1.3%
Cn1c(CNS(=O)(=O)c2cccc(Cl)c2)cc(=O)n(C)c1=O | -3.1%
CCC(C)(C)C1CCC(=NNc2nc3ccccc3[nH]2)CC1 (stereo unspecified) | 2.1%
Cc1ccc2nc3c(cc2c1)CN(Cc1ccco1)C(=NCC1CCCO1)S3 (stereo unspecified) | u
O=C(CSc1nc2ccccc2n1CCc1ccccc1)c1ccc(O)c(O)c1 | -19.8%
N#Cc1c(N2CCOCC2)nc(N)c2c(N)nc3c(c12)CC(CCl)O3 (stereo unspecified) | 38.2%[activator]
O=[N+]([O-])c1cccc2ccc(N3CCOCC3)nc12 | 5.3%
Cc1cc(C)cc(C(=O)NCC(=O)OCC(=O)N2CCN(S(=O)(=O)c3ccc4ccccc4c3)CC2)c1 | 4.5%
CC(=O)NCCNc1ncnc2ccc(-c3ccccc3C#N)cc12 | -7.0%
O=C(NCCC1=CCCCC1)NC1CCCCC1 | -10.5%
COc1ccccc1CCNC(=O)C(=O)NCCC1CCCCN1S(=O)(=O)c1ccccc1 (stereo unspecified) | -12.2%
Cc1ccc(S(=O)(=O)NC(=O)c2cc(C)n(-c3cc(S(=O)(=O)N4CCOCC4)ccc3N3CCCC3)c2C)cc1 | 18.0%
CC(C)(C)c1ccc(-c2nc(SCCCOc3ccccc3)n3[nH]c(=O)cc3n2)cc1 | -4.1%
Cc1ccc(NC(=O)Cn2nc(Cc3ccncc3)c3ccccc3c2=O)c(Cl)c1 | -5.8%
O=C(CCc1ccccc1)Nc1ccc(NC(=O)c2ccco2)nc1 | 0.2%
O=c1c2ccccc2c(-c2n[nH]c(=S)o2)nn1Cc1ccccc1 | -13.0%
Cc1cccc(C)c1NC(=O)CC(C)c1ccccc1 (stereo unspecified) | -6.5%
Cc1nc(NCc2ccco2)c2cn[nH]c2n1 | -12.1%
Cc1ccc(CNC(=O)CN2C(=O)NC3(CCCC3)C2=O)cc1 | 14.9%
CCCCCn1c(SCC(=O)OCC)nc2cc(C(=O)N3CCC(C(N)=O)CC3)ccc2c1=O | 5.7%
CC(Sc1nc(N)cc(=O)[nH]1)C(=O)NC1CCCCC1 (stereo unspecified) | -3.2%
COc1cccc(OCC(=O)NNC(=O)c2ccc3ccccc3c2O)c1 | 7.7%

(list continues)
SMILES | VDR inh
CCc1cccc2c(C(=O)COC(=O)/C=C/c3ccccc3OC)c[nH]c12 | -1.4%
C=C1N(c2ccc(Cl)cc2)C(=O)OC1(C)C | 13.2%
CCN1CCN(c2ncc3c(n2)CCN(CC(C)C)C3)CC1 | 11.3%
COC(C[C@@H](O)C[C@@H](O)[C@@H](C)OCc1ccccc1)OC | -18.3%
C#CC[N+](C)(C)CCCCCCCCCCCC | 9.0%
Cc1ccc(S(=O)(=O)c2nc(-c3ccccc3F)oc2NCc2ccccc2)cc1 | -18.1%
COc1ccc(Cc2nc(C(=O)Nc3ccc(OC)cc3)cs2)cc1 | -2.0%
Cc1nnc(SCC(=O)N2CCOCC2)n1C | -1.1%
CCCOc1ccccc1C(=O)N1CCC(c2nc3ccccc3s2)CC1 | -5.6%
COc1ccc(C(=O)NCC(c2ccc3c(c2)OCO3)N2CCOCC2)cc1 (stereo unspecified) | -7.0%
N/C(=N\OC(=O)CCN1C(=O)c2ccccc2C1=O)c1ccccn1 | -1.8%
CCC(CC)NC(=O)c1cccc(Oc2ccccc2)c1 | -10.6%
COc1ccc(CCNC(=O)CC(C)S(=O)(=O)c2ccc3c(c2)NC(=O)CO3)cc1OC (stereo unspecified) | 16.5%
CCN(CC(=O)NCc1ccc(Cl)cc1)C(=O)/C=C/c1ccc(Cl)c([N+](=O)[O-])c1 | -23.4%
CC(=O)Nc1ccc(NC(=O)C2CC(=O)N(Cc3ccccc3)C2)cc1 (stereo unspecified) | 14.4%
Nc1ccc(N2CCN(c3ccccc3)CC2)c(F)c1 | -0.7%
CCOc1ccc(Nc2ncnc3c2c(-c2ccccc2)cn3-c2cccc(C)c2)cc1 | 15.4%
COc1ccc(CNC(=O)C2Cc3cc(S(=O)(=O)N4CCCCCC4)ccc3N2C(C)=O)cc1 (stereo unspecified) | 8.1%
CCOC(=O)C1=C(c2ccccc2)NC(=S)NC1c1cccc([N+](=O)[O-])c1 (stereo unspecified) | 4.5%
CCOc1c(Br)cc(C(=O)OCC(=O)N2CCc3ccccc3C2)cc1OC | -24.4%
CN(c1ccccc1)C(CNS(=O)(=O)c1ccccc1)c1ccccc1 (stereo unspecified) | 12.8%
COc1ccc(CNC(=O)COC(=O)CCS(=O)(=O)c2ccc(C)cc2)cc1OC | 16.6%
OCCN(Cc1ccccc1)CC1CC2C=CC1C2 (stereo unspecified) | 0.3%
O=S(=O)(Cc1ccccc1Cl)Nc1ccccn1 | -1.9%
Cc1ccc2c(C(=O)CN3CCOCC3)c(C)[nH]c2c1 | 2.9%
Cc1cccc(NC(=O)c2ccccc2Br)n1 | -11.8%
O=C(CCCOc1ccc(Cl)cc1Cl)N/N=C/c1cccc([N+](=O)[O-])c1 | -0.5%
Cc1nc2ccc(S(=O)(=O)NC(C(=O)NCc3ccccc3Cl)C(C)C)cc2s1 (stereo unspecified) | -8.5%
COc1cc2c(cc1OC)CN(CC(=O)Nc1ccc3c(c1)OCO3)CC2 | 13.3%
Cc1ccc(CNC(=O)CN2C(=O)NC(C)(c3ccc(Cl)cc3)C2=O)cc1 (stereo unspecified) | 3.5%

Part of the list above, tab-delimited.
compound	VDR inh
CCC(C)(C)C1CCC(=NNc2nc3ccccc3[nH]2)CC1 (stereo unspecified)	2.1%
Cc1ccc2nc3c(cc2c1)CN(Cc1ccco1)C(=NCC1CCCO1)S3 (stereo unspecified)	u
O=C(CSc1nc2ccccc2n1CCc1ccccc1)c1ccc(O)c(O)c1	-19.8%

(list continues)
SMILES | VDR inh
CN(c1ccc(C(=O)NCc2ccc3c(c2)OCO3)cc1)S(=O)(=O)c1ccccc1 | 9.4%
O=C(NC1CCCCC1)c1ccc(-c2ccccc2[N+](=O)[O-])o1 | -5.2%
O=C(O)c1ccc2nc3c(nc2c1)-c1ccccc1C3=O | u
Cc1cc2oc(C(=O)N(Cc3ccc(N(C)C)cc3)Cc3ccco3)c(C)c2cc1Cl | 1.6%
CC(=O)Nc1ccc(Nc2nc3c(S(=O)(=O)c4cc(C)ccc4C)nnn3c3ccsc23)cc1 | 1.5%
O=C(Nc1cccnc1)c1cc(Cl)ccc1Cl | 3.7%
CN(C(=O)CN1C(=O)c2cc(Cl)c(Cl)cc2C1=O)C1CCS(=O)(=O)C1 (stereo unspecified) | 0.1%
COc1ccc(NC(=O)C2CCCN(S(=O)(=O)c3c(C)n[nH]c3C)C2)cc1 (stereo unspecified) | 10.7%
COc1ccc(/C=C/c2nc(C#N)c(N3CCCCC3)o2)cc1OC | 18.5%
CN1CCC(NC(=S)Nc2cccc([N+](=O)[O-])c2)CC1 | -15.2%
CCOC(=O)c1c(NC(=O)C(C)N2CCN(S(=O)(=O)c3cccs3)CC2)sc2c1CCC(C)C2 (stereo unspecified) | -22.0%
COc1ccc(-c2onc(C)c2-c2ccc3c(c2)OCCO3)c(O)c1 | u
COc1ccc(Nc2ccc(C(F)(F)F)cc2[N+](=O)[O-])cn1 | 4.1%
O=C(CC1COc2ccccc2O1)NC1CCCCC1 (stereo unspecified) | 11.6%
CC(C)Cc1cc(C(=O)NCc2cccnc2)no1 | -10.6%
CC(NC(=O)C1CCCN1S(=O)(=O)c1ccccc1)c1ccccc1 (stereo unspecified) | -18.9%
Cc1ccc(C(=O)N(C)Cc2ccccc2)cc1S(=O)(=O)N1CCOCC1 | 1.3%
CC(=O)c1sc(NC(=O)CSC(C)C(=O)Nc2cc(C)on2)nc1-c1ccccc1 (stereo unspecified) | -0.7%

Some of these compounds in order of count of non-hydrogen atoms, lowest first.
SMILES | VDR inh
O=C(CC1COc2ccccc2O1)NC1CCCCC1 (stereo unspecified) | 11.6%
CCc1cccc2c(C(=O)COC(=O)/C=C/c3ccccc3OC)c[nH]c12 | -1.4%
O=C(O)CCN1C(=O)c2ccc(NC(=O)CSc3ccc(Cl)cc3)cc2C1=O | -13.8%
COc1ccc(CCNC(=O)CC(C)S(=O)(=O)c2ccc3c(c2)NC(=O)CO3)cc1OC (stereo unspecified) | 16.5%
